TSHR agonist = TSH receptor (human) agonism | Potency, µM (titrated, usually from 57.1 µM), inactives show at the top dose activation, hits mostly activators | P16473 | HEK293-CNG-TSHR cells (CNG channel as cAMP sensor), membrane potential dye, cAMP | 73,000 tested, 0.48% active | AID 926; active = well fitted activation curve of enough size with the parental cells flat; inconclusive = any curve in the parental cells; inactive = parental cells flat and receptor cells flat or falling; note: potency is the fitted concentration of half-maximal effect; % of control where 0% means no effect; weak receptor curves with flat parental cells got no call and are not listed
Target sequence (P16473 whole entry, looked up): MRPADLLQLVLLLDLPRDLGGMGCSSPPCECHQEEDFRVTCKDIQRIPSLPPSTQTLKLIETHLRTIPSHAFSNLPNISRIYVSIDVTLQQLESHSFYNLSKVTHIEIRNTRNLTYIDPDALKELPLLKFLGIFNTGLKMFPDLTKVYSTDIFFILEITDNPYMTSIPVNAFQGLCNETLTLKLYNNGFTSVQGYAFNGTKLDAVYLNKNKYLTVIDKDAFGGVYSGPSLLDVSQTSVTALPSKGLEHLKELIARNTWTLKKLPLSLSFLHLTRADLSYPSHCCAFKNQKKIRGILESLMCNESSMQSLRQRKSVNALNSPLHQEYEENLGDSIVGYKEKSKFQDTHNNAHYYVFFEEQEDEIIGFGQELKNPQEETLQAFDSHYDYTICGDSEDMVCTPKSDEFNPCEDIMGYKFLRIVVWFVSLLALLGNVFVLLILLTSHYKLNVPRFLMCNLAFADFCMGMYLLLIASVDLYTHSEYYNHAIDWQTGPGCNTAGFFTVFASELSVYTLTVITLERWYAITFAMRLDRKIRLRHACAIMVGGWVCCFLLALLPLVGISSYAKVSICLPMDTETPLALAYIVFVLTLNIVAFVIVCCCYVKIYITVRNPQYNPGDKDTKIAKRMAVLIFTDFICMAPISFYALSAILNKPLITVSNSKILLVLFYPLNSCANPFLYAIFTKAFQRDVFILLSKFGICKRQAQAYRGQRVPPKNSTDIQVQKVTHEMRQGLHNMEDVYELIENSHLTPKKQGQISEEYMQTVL
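HEK 293 cells stably expressing TSHR and a modified CNG channel, with CNG-only parental cells as counterscreen, were preloaded 60 min at room temperature with membrane potential dye containing 100 uM RO 20-1724. Compound exposure was 30 min, and depolarization was read as fluorescence at 590 nm.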
AID923 = qHTS Assay for Allosteric/Competitive Inhibitors of Caspase-1: Spectroscopic Profiling in AFC Spectral Region; compound fluorescence, AFC spectral region (405/520 nm); almost no hit is shown here; Potency, µM (highest dose often 57.5 µM), for the others: at the highest dose fluorescence increase, most hits filed as activators; 75,000 tested, 1.1% active; AID 923, 2007; active = well fitted activation curve with a large enough effect; inconclusive = small, poorly fitted or top-dose-only effect;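 note: potency is the fitted concentration of half-maximal effect; 0% is about no effect; scaled to a free AFC standard on each plate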
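Baseline compound fluorescence (AFC region, 405 nm ex/520 nm em) taken from the intercept of kinetic reads with 50 nM caspase-1 and 5 uM Ac-WEHD-AFC; normalized to an on-plate AFC standard curve; compounds titrated up to 57 uM.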
Resorufin autofl = compound fluoresces in the resorufin spectral region. 59,000 tested, 0.04% active. Compound fluorescence, resorufin region 547/598 nm, buffer; stronger effect = higher value. AID 588. max dye-equivalent concentration, M; active = above 10 nM dye equivalent; inconclusive = 1 to 10 nM; inactive = 1 nM or less; a few of its hits are not listed in these tables; note: highest value over a series up to 38 µM
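Dye-equivalent concentration values derive from comparing each well's 547/598 nm fluorescence against resorufin standards included on every plate. Incubation was 15 min at room temperature in 100 mM Tris, pH 8.0.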
A488 fluor = compound autofluorescence in A488 spectral region; compound autofluorescence, A488 spectral region, dye equivalency; stronger effect = higher value; max dye equivalency, M; 59,000 tested, 0.1% active; AID 591; active = above 10 nM dye equivalent; inconclusive = 1 to 10 nM; inactive = 1 nM or less; about half of its hits are not listed in these tables;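 note: highest value over a series up to 38 µM; compound alone in buffer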
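Readout is A488 dye-equivalent concentration, calibrated by a per-plate six-point Alexa 488 series. Compounds in 100 mM Tris buffer pH 8.0 were incubated 15 min at room temperature. Plates were imaged using 480 nm excitation/540 nm emission filters.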
A647 autofl = compound autofluorescence in A647 spectral region. 59,000 tested, under 10 active. max dye-equivalent concentration, M. AID 592. Compound fluorescence, A647 channel (570/671 nm), Tris buffer; active means above 1 µM dye equivalent; inconclusive means 0.1 to 1 µM; inactive means 0.1 µM or less;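 note: values scaled relative to a standard on each plate; highest value over a series up to 38 µM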
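Buffer was dispensed, compounds and Alexa 647 standards were pin-transferred, and plates sat 15 min at room temperature. Intensity at 570/671 nm was then converted to dye-equivalent concentration using the plate's A647 standard curve.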
* hit, by the source's call; i = inactive; u = inconclusive; x = not tested or not shown; & = joins results of further samples; [ ] = dose if it differs, or a comment. Some of the compounds tested, so the mix of outcomes need not match the whole.

SMILES | TSHR agonist | AID923 | Resorufin autofl | A488 fluor | A647 autofl
CCN1C(C)=C(C(=O)OC)C(c2ccccc2)N2C(=O)[C@](O)(C(=O)OC)CC(C(C)=O)=C12 (stereo partly drawn) | -5%[11.4 µM] | 3.3%[11.5 µM] | x | x | x
O=c1c(O)c(-c2cc(O)c(O)c(O)c2)oc2cc(O)cc(O)c12 | -1% | 0.8% | i | i | 1.2e-08&1.4e-08&4.6e-08
CCC(C(=O)NC1CCCCC1)N(CC1CCCO1)C(=O)CNS(=O)(=O)c1ccc(OC)cc1 (stereo not drawn) | 6% | -3.8% | i | i | 1e-09
CNC(=O)NC(=O)COC(=O)CCCOc1ccc(OC)cc1 | -1% | -0.7% | i | i | 1e-09
CCOC(=O)C1CCCN(C(=O)c2cc3c(C)nc4ccccc4c3o2)C1 (stereo not drawn) | 1% | -1.1% | i | i | 2.6e-08
Cc1ccc(C)c(N2CC(=O)N(c3cc(C)ccc3C)CC2=O)c1 | 0% | 0.6% | i | i | 3.1e-08
COCCn1c(=O)c(-c2ccc(F)cc2)nc2cnc(Oc3ccccc3)nc21 | u | 13% | i | i | 1e-09
COC(=O)c1cc2occc2n1Cc1c(F)cccc1Cl | u | 0.2% | i | i | 1e-09
COCCCNC(=O)CSc1nc2ccccc2c(=O)n1CCCC(=O)NCC1CCCO1 (stereo not drawn) | -2%[11.4 µM] | -0.2% | i | i | 6.9e-09
O=C(CCn1nnc2ccccc21)Nc1nnc(Cc2ccccc2)s1 | 3% | -2.7% | i | i | 2.5e-08
CN(C)c1ccc(-c2cc(-n3ccnc3)ncn2)cc1 | 0% | 16% | i | i | 1.7e-09
O=C(NCCN1CCOCC1)c1cc2n(n1)C(C(F)(F)F)CC(c1ccc(F)cc1)N2 (stereo not drawn) | x | x | i | i | 4.2e-08
COC(=O)c1ccccc1NC(=O)CSc1n[nH]c(CC(C)C)n1 | 22% | -0.4% | i | i | 1e-09
Cc1ccsc1C1CC(=O)NC2=C1C(=O)CC(C)(C)C2 (stereo not drawn) | 0% | 0.9% | i | i | 2.9e-08
CC(C)CNc1nc2ncnc(N)c2[nH]1 | 2%[11.4 µM] | -0.6%[11.5 µM] | i | i | 6.3e-09
COCCn1c(N2CCN(c3ccc(OC)cc3)CC2)nc2c1c(=O)[nH]c(=O)n2C | 2% | 0.3% | i | i | 1e-09
COC(=O)c1ccc(C)c(NC(=O)Cc2coc3cc(OC)ccc23)c1 | 0% | 0.5% | i | i | 1e-09
Cc1ccc(S(=O)(=O)Cc2ccc(C(=O)N3CCN(c4ccc(F)cc4)CC3)o2)cc1 | 22% | -0.5% | x | x | x
Cc1ccc(NC(=O)Cn2cnc3c(cnn3C(C)(C)C)c2=O)cc1 | 4% | -0.4% | i | i | 1e-09
COCC(C)Nc1ncnc2c1cnn2-c1ccc(Cl)cc1 (stereo not drawn) | x | x | i | i | 5.7e-09
COc1ccc(CCNC(=O)c2cc3sccc3n2C)cc1OC | 3% | 1.3% | i | i | 2.2e-08
CCOC(=O)CSc1nc2c(sc(=S)n2Cc2ccco2)c(=O)n1-c1ccccc1 | u | -0.6% | i | i | 1e-09
COC(=O)c1ccccc1NC(=O)C1COc2ccccc2O1 (stereo not drawn) | x | x | i | i | 1.5e-09
CO/C=C/C#CC1(O)CCN(C)CC1 | 1% | -1.4% | i | i | 3.4e-08
O=C1O[C@@H]([C@@H](O)CO)[C@@H](O)[C@H]1O | -15%[25.6 µM] | -2.0%[25.7 µM] | i | i | 1e-09
CCOC(=O)Nc1nnc(-c2ccccc2OC)s1 | 5% | 0.0% | i | i | 3.1e-09
c1ccc(CNn2nnnc2-c2ccccc2)cc1 | 16% | -1.9% | i | i | 3.2e-08
COc1ccc(NC(=O)CSc2ncn(-c3ccccc3)n2)cc1Cl | 29% | -2.3% | i | i | 3.5e-08
CCOC(=O)c1c(NC(=O)COC)sc2c1CCCC2 | u | -1.4% | i | i | 2.6e-08
COC(=O)Nc1c(-c2ccccc2)nc2ccccn12 | 6% | -0.8% | i | i | 2.7e-08
O=C(CSCc1ccccc1)Nc1nccs1 | u | -1.1% | x | x | x
O=C(Nc1nccs1)c1ccc(S(=O)(=O)N2CCCCC2)cc1 | u | -1.3% | x | x | x
O=C(c1cn(-c2ccccc2)nc1-c1ccncc1)N1CCCCC1 | 45% | -3.3% | i | i | 3e-08
COc1ccc(C(=O)Nc2nc(C)c(C(=O)N(C)C)s2)cc1OC | 3% | 0.4% | i | i | 6.3e-08
CCOC(=O)Cc1[nH]nc2c1C(C1C=CCCC1)C(C#N)=C(N)O2 (stereo not drawn) | -1% | 0.5% | i | i | 1e-09
COc1ccc(OCCSc2nnc3sc4ccccc4n23)cc1 | 16%[11.4 µM] | 0.2% | i | i | 3.1e-08
COc1ccc(-c2nc(NC(=O)CSc3nnc(C)s3)ns2)cc1 | -2% | 2.8% | i | i | 6e-09
O=C1CC(c2cccc(F)c2)C2=C(CCCC2=O)N1 (stereo not drawn) | 16% | 1.6% | i | i | 4.5e-08
CCOC(=O)Cn1c(=N)n(CCOc2cccc(C)c2)c2ccccc21 | -16% | -1.0% | i | i | 1e-09
O=C1C2=CC[C@@H]3C(=O)N(c4ccc(F)cc4F)C(=O)[C@H]3[C@H]2[C@H](O)[C@H]2O[C@H]12 | 4%[11.4 µM] | 5.6%[11.5 µM] | x | x | x
O=C(c1coc(=O)c2ccccc12)N1CCN(Cc2ccccc2)CC1 | 1% | 2.4% | i | i | 3.1e-08
CCN(CC)S(=O)(=O)c1ccc(-c2nnc(SCC(=O)Nc3ccc4c(c3)OCO4)o2)cc1 | x | 0.7% | i | i | 3.3e-08
O=C(C1CC1c1ccccc1)N1CCN(c2cccc(Cl)c2)CC1 (stereo not drawn) | u | 2.2% | i | i | 9.5e-09
Cc1cnc(C(=O)Nc2ccc(N3CCN(C(=O)OC(C)(C)C)CC3)cc2)cn1 | 5% | 0.1% | i | i | 9.4e-09
O=C(O)CCc1ccc(-c2ccccc2)n1CC1CCCO1 (stereo not drawn) | 2% | 18% | i | i | 2.2e-08

Two entries from above, with two lines to a compound:
Order of results: TSHR agonist, AID923, Resorufin autofl, A488 fluor, A647 autofl
> COC(=O)c1cc2occc2n1Cc1c(F)cccc1Cl
    u, 0.2%, i, i, 1e-09
> c1ccc(CNn2nnnc2-c2ccccc2)cc1
    16%, -1.9%, i, i, 3.2e-08

Next part
SMILES | TSHR agonist | AID923 | Resorufin autofl | A488 fluor | A647 autofl
O=C(c1ccc(Cl)cc1)c1nnc(-c2ccncc2)o1 | -10% | 0.0% | i | i | 1.9e-09
Cc1csc(SCc2nc3sc4c(c3c(=O)[nH]2)CCC4)n1 | 10% | -0.2% | i | i | 1.6e-08
O=C(Nc1c(F)c(F)c(F)c(F)c1F)NC1CCCCC1 | x | 0.8% | i | i | 2.6e-09
Cc1cccc2nc(CSc3nnnn3-c3ccccc3)cn12 | 16% | 0.1% | i | i | 3.8e-09
O=C(NCCN1CCOCC1)N1CCOCC1 | 1% | 0.8% | i | i | 6.1e-09
c1nc(N2CCCCC2)c2[nH]cnc2n1 | 10% | -0.5% | x | x | x
COc1ccc(OC)c(C2NC(=O)NC(C)=C2C(=O)Nc2ccc(C)cc2C)c1 (stereo not drawn) | 7% | -1.2% | x | x | x
Cc1c(Cl)ccc2c1NC(=O)C21NC(CCC(N)=O)[C@H]2C(=O)N(c3ccc(Cl)cc3)C(=O)[C@H]21 (stereo partly drawn) | 2% | -0.2% | i | i | 1.6e-08
Cc1nnc(NC(=O)c2ccco2)s1 | -1% | 0.0% | x | x | x
CCn1c(N)c(C(=O)NC2CCCCC2)sc1=S | -10% | 0.3% | i | i | 1.4e-08
CN(C)Cc1cc(C(F)(F)F)ccc1C(O)(c1ccccc1)c1ccccc1 | 9%[11.4 µM] | -0.8%[11.5 µM] | i | i | 3.1e-08
CN(C)C(=O)/N=N\C(=O)N(C)C | u | -4.6% | i | i | 3.6e-08
Cc1c(N2C(=O)C(C)SC23C(=O)Nc2ccccc23)c(=O)n(-c2ccccc2)n1C (stereo not drawn) | 1% | -0.5% | i | i | 1e-09
Cn1c(N)c(C#N)c(C#N)c1-c1ccccc1 | x | x | i | i | 2e-08
COc1cccc(C2C(C#N)=C(N)Oc3cc(C)n(Cc4ccccn4)c(=O)c32)c1OC (stereo not drawn) | 3% | -0.4% | i | i | 1e-08

Sorted by count of non-hydrogen atoms (rising): part of the list above
SMILES | TSHR agonist | AID923 | Resorufin autofl | A488 fluor | A647 autofl
Cc1nnc(NC(=O)c2ccco2)s1 | -1% | 0.0% | x | x | x
c1nc(N2CCCCC2)c2[nH]cnc2n1 | 10% | -0.5% | x | x | x
O=C(NCCN1CCOCC1)N1CCOCC1 | 1% | 0.8% | i | i | 6.1e-09
CCn1c(N)c(C(=O)NC2CCCCC2)sc1=S | -10% | 0.3% | i | i | 1.4e-08
O=C(c1ccc(Cl)cc1)c1nnc(-c2ccncc2)o1 | -10% | 0.0% | i | i | 1.9e-09
Cc1cccc2nc(CSc3nnnn3-c3ccccc3)cn12 | 16% | 0.1% | i | i | 3.8e-09

The listing continues:
SMILES | TSHR agonist | AID923 | Resorufin autofl | A488 fluor | A647 autofl
[C-]#[N+]/C(C#N)=C\c1cc(C(C)(C)C)c(O)c(C(C)(C)C)c1 | u | -4.5% | x | x | x
CN(C)c1cccc(C(=O)Nc2cccc(F)c2)c1 | -6% | 4.5% | i | i | 1.8e-09
COc1ccc(-c2nnn(CC(=O)OC3CCCCC3)n2)cc1OC | 24% | -0.7% | i | i | 1e-09
O=C(CSc1nc2ccccc2[nH]1)NCCCn1ccnc1 | 0% | -1.0% | i | i | 1e-09
c1ccc(Cc2nnc3n2CCCCC3)cc1 | x | x | i | i | 9.5e-08
CCc1cc2c(=O)n(C(C)C(=O)OC3CCCCC3)cnc2s1 (stereo not drawn) | 38% | -0.2% | i | i | 1e-09
CC(C)c1[nH]nc2c1C(c1cccnc1)C(C#N)=C(N)O2 (stereo not drawn) | 11% | -1.0% | i | i | 5.3e-09
CC(C)n1c(N2CCN(C(=O)N3CCCCC3)CC2)nc2ccccc21 | -4% | 0.0% | i | i | 6e-09
c1cncc(-c2nc3cc(Cc4ccc5oc(-c6cccnc6)nc5c4)ccc3o2)c1 | u | 2.8% | i | i | 6.1e-08
O=C(Nc1cccc(Cl)c1)N1CCN(Cc2ccccc2)CC1 | u | 2.4% | x | x | x
COc1cc(OC)cc(C(=O)NCc2cccnc2)c1 | 5% | 0.4% | i | i | 1.3e-08
Cc1ccc(S(=O)(=O)NCc2ccncc2)cc1 | 13%[11.4 µM] | -1.8% | i | i | 3.2e-08
Cc1nccn1CC(O)COC1CCCCC1 (stereo not drawn) | 2% | 0.0% | i | i | 2.3e-08
CC(=O)c1cc2c(cc1NS(=O)(=O)c1ccc3c(c1)OCCO3)OCO2 | 25% | 2.6% | i | i | 1e-09
CC(C)n1c(-c2ccco2)csc1=Nc1cccnc1 | u | 0.1% | i | i | 3.1e-08
COc1cc(-c2nnc3sc(-c4ccncc4)nn23)cc(OC)c1OC | 1%[11.4 µM] | 3.0% | i | i | 4.5e-09
O=C(Nc1ccc(Br)cc1)N1CCCCCCC1 | 21%[11.4 µM] | 1.2% | i | i | 4e-08
c1csc(CSc2nc3ccccc3s2)c1 | 7% | -0.5% | i | i | 2.8e-09
Cc1ccc(-c2nn(C)c(=O)c3ccccc23)cc1S(=O)(=O)N1CCOCC1 | 23% | -1.2% | i | i | 5.2e-09

Some values from the list.
A647 autofl result of `Cc1ccc(-c2nn(C)c(=O)c3ccccc23)cc1S(=O)(=O)N1CCOCC1` stands at 5.2e-09
TSHR agonist result of `O=C(Nc1ccc(Br)cc1)N1CCCCCCC1` stands at 21%[11.4 µM]

Screens as filed in PubChem BioAssay.
